StopGo FLuc = lowers the firefly signal of an FMDV 2A StopGo reporter. HEK cells with a luciferase reporter of 2A StopGo recoding. Potency, µM (doses to about 57.5 µM), for inactives: at the highest dose signal change, negative = less light. 120,000 tested, 0.23% active; active = well fitted falling curve with a large enough effect; inconclusive = small, poorly fitted or top-dose-only effect; inactive = no such curve, though single readings can be large or run the other way; note: nearly all actives have a fitted effect of over 60% in size; overnight with compound
2A Renilla = lowers the Renilla signal of an FMDV 2A StopGo reporter. HEK cells with a luciferase reporter of 2A StopGo recoding. Potency, µM (doses to about 57.5 µM), for the others: top-dose signal change, negative = less light. 120,000 tested, 0.32% active. AID 1745857; active means well fitted falling curve with a large enough effect; inconclusive means small, poorly fitted or top-dose-only effect; inactive means no such curve, though single readings can be large or run the other way; note: nearly all actives have a fitted effect of over 55% in size; overnight with compound
Numbers without * were called inactive; ? = inconclusive; & = joins results of further samples; [ ] = dose if it differs, or a comment. % is set by controls: 0 for no effect and ±100 for the full control effect; potency is the fitted concentration of half-maximal effect. Not a hit list; 0.55% or so of the library scored in one or more.

| SMILES | StopGo FLuc | 2A Renilla |
| --- | --- | --- |
| COc1ccccc1NC(=O)c1nc(SCc2ccc(F)cc2)ncc1Cl | -10% | -10% |
| CCCN(c1ccc(OCC)cc1)c1nc(C(=O)OCC)nc2ccccc12 | -21% | -18% |
| O=C(c1ccc2c(c1)N(Cc1ccc(Cl)cc1)C(=O)c1ccccc1S2(=O)=O)N1CCOCC1 | -6% | 9% |
| O=C(CCc1cc(Cl)no1)N(CCS(=O)(=O)N1CCOCC1)Cc1ccncc1 | -5% | -6% |
| CCOC(=O)c1c(S(=O)(=O)N2CCC(C(=O)Nc3cccc(C#N)c3)CC2)c(C)n(C)c1C | 6% | -6% |
| O=C(c1cc(F)c(F)c(F)c1F)N(C1CCCCC1)C1CCCCC1 | -7% | -1% |
| CCCCn1cnc2c1c(=O)n(CC(=O)NC1CC1)c(=O)n2CCC | -10% | 20% |
| COc1ccc(NC(=O)CSc2nc3ccccc3n2CC(=O)N(C)C2CCCCC2)cc1 | 28% | 30% |
| O=C(Cc1ccc(NC(=O)N2CCSc3ncccc32)cc1)NCc1ccccc1 | -1% | -5% |
| O=C(COC(=O)c1ccc2c(c1)NC(=O)CS2)NCc1ccccc1 | 0% | -1% |
| Cc1ccc(-n2nc(-c3noc(C(=O)NCc4cccnc4)n3)c(=O)n(C)c2=O)cc1 | 3% | -10% |
| CCOc1ccc(OCC)c(NC(=O)C2CCN(S(=O)(=O)c3cn(C)cn3)CC2)c1 | 5% | -3% |

5 compounds drawn at random from the list so far:
| SMILES | StopGo FLuc | 2A Renilla |
| --- | --- | --- |
| CCOc1ccc(OCC)c(NC(=O)C2CCN(S(=O)(=O)c3cn(C)cn3)CC2)c1 | 5% | -3% |
| CCCN(c1ccc(OCC)cc1)c1nc(C(=O)OCC)nc2ccccc12 | -21% | -18% |
| O=C(COC(=O)c1ccc2c(c1)NC(=O)CS2)NCc1ccccc1 | 0% | -1% |
| Cc1ccc(-n2nc(-c3noc(C(=O)NCc4cccnc4)n3)c(=O)n(C)c2=O)cc1 | 3% | -10% |
| CCCCn1cnc2c1c(=O)n(CC(=O)NC1CC1)c(=O)n2CCC | -10% | 20% |

Going on with the list:
| SMILES | StopGo FLuc | 2A Renilla |
| --- | --- | --- |
| CC(C)Cn1cnc2c1c(=O)n(CC(=O)N1CCc3ccccc31)c(=O)n2Cc1ccccc1 | 7% | 10% |
| Cc1[nH]c2ccccc2c1C(=O)C(=O)NCCNC(=O)C1CCCC1 | -10% | -4% |
| O=C1C(=O)N(C2CCN(S(=O)(=O)c3ccc(F)cc3)CC2)CCN1Cc1ccccc1 | -2% | 0% |
| O=C(Nc1ccc2nc(SCc3ccc(I)cc3)sc2c1)C1CCCCC1 | 1% | -4% |
| CN1CCN(C(=O)CN(Cc2ccc(Cl)c(Cl)c2)S(=O)(=O)c2ccccc2)CC1 | -15% | -10% |
| O=C(O)C(c1c[nH]c2ccc(Cl)cc12)N1CCN(Cc2ccccn2)CC1 (stereo not given) | -6% | -9% |
| Cc1cc(C(C)(C)C)ccc1OCC(O)Cn1cnc2sccc2c1=O (stereo not given) | -107% | ? |
| O=C(NCc1ccccc1CN1CCOCC1)c1cc(-c2ccco2)nc2ccccc12 | -12% | -2% |
| CCOc1cccc2cc(-c3cc(=O)oc4cc(C)ccc34)oc12 | 2% | -12% |
| C#CCNC(=O)c1nccnc1N | -3% | 3% |
| C=CCSc1nc2c(c(=O)n(C)c(=O)n2C)n1CCc1ccc(OC)cc1 | -29% | -12% |
| Cc1ccccc1Nc1nc(NC2CCCC2)nc2c1cnn2-c1ccccc1 | -8% | 61%[activator] |

(next part)
| SMILES | StopGo FLuc | 2A Renilla |
| --- | --- | --- |
| CCc1ccccc1NC(=O)NCc1nc(-c2ccccc2)oc1C | -4% | -11% |
| O=C(CCN1CCN2CCCC2C1)N1c2ccccc2Sc2ccc(Cl)cc21 (stereo not given) | -21%[27 µM] | -10%[23.8 µM] |
| COC(=O)c1cc(C)nc2c1c(=O)nc(SCc1cc(C)ccc1C)n2C1CC1 | -23% | 8% |
| Cc1cc(Oc2c(C(F)(F)F)oc3c(CN4CCC(C)CC4)c(O)ccc3c2=O)cc(C)c1Cl | -14% | 11% |
| CCOC(=O)c1sc2ccccc2c1S(=O)(=O)Nc1cc(OC)ccc1OC | -13% | 199%[activator] |
| CCOc1ccc(NC(=O)N2CCC(N3CCCCC3)CC2)cc1 | -10% | -11% |
| CCC(C(=O)NCc1cc(C)ccc1OC)c1ccccc1 (stereo not given) | 2% | 7% |
| CCOc1ccc2nc(SC3CC(=O)N(c4ccc(C)c(C)c4)C3=O)nc(C)c2c1 (stereo not given) | 24% | 15% |
| CCN1CCN(C(=O)c2c(C)nn(-c3ccc(F)cc3)c2-n2cccc2)CC1 | 12% | 1% |
| CCOCCn1c(SCC(=O)OCC)nc2c1c(=O)[nH]c(=O)n2C | 0% | -6% |
| Clc1cc(Cl)cc(OCc2cc(-c3ccco3)on2)c1 | 15% | -2% |
| COc1ccc(-c2cc(OC(=O)c3ccc(Cl)cc3)c3c(C)oc(C)c3c(=O)c2)cc1 | 9% | 14% |

Later entries:
| SMILES | StopGo FLuc | 2A Renilla |
| --- | --- | --- |
| CCOc1cc(C(=O)Nc2ccc(N3CCCC3)c(Cl)c2)cc(OCC)c1OCC | 4% | 14% |
| CCCCOC(=O)CSc1nnc(-c2ccccc2)o1 | -27% | -5% |
| CCC1CN(C(=O)N2CCC(C(=O)O)CC2)c2cc(C)ccc2O1 (stereo not given) | -6% | -3% |
| O=C1CSc2ccc(S(=O)(=O)N3CCCCC3)cc2N1 | 3% | 11% |
| O=C(NCc1ccncc1)C(=O)N1CCN(C(=O)c2cc3ccccc3[nH]2)CC1 | -10% | 7% |
| CCCCC(=O)Nc1ccc(-c2cc3cc(F)ccc3[nH]2)cc1 | 83%[activator] | -7% |
| COc1ccc(NC(=O)c2n[nH]c3ccccc23)cc1NS(=O)(=O)c1ccc(F)cc1 | 19% | 50%[activator] |
| O=C(CSc1nnc(Cc2cccs2)n1C1CCCCC1)N1CCCCCC1 | 7% | 20% |
| CCCOc1cc(C)c(C(C)C)cc1S(=O)(=O)N1CCCC1 | -11% | 262%[activator] |
| COc1cc(NS(=O)(=O)c2ccc(-c3cnc(C4CC4)o3)cc2)cc(OC)c1OC | ? | -21% |
| Cc1nc2ccc(Cl)cc2cc1C(=O)Nc1ccc(C(N)=O)cc1 | 34%[activator] | 16% |
| CCn1cnc2c1c(=O)n(CC(=O)N(C)CC(=O)N1CCOCC1)c(=O)n2Cc1ccccc1 | -3% | -4% |

Continuation:
| SMILES | StopGo FLuc | 2A Renilla |
| --- | --- | --- |
| C/C(=N/Nc1ccc(S(N)(=O)=O)cc1[N+](=O)[O-])c1ccc2c(c1)Nc1ccccc1S2 | 0% | 2% |
| Cc1ccc(C(NC(=O)Cc2cccs2)C(=O)Nc2ccc(C(C)C)cc2)cc1 (stereo not given) | -3% | 3% |
| O=C1Cc2cc(S(=O)(=O)N(Cc3ccccc3)c3ccccc3)cc3c2N1CCC3 | -1% | 28% |
| CC(C)CNc1ncnc2onc(-c3ccc(Cl)cc3)c12 | 25% | 13% |
| COC(=O)C1=CC(=O)C=C(OC)[C@@]12Oc1cc(C)cc(OC)c1C2=O | ? | ? |
| O=C(/C=C/c1ccc(OC(F)(F)F)cc1)N1CCCC1 | 82%[activator] | 23% |
| CCCNC(=O)c1c(NC(=O)c2ccc(C)cc2)sc2c1CCCCC2 | 0% | -3% |
| COc1ccc(CNc2nc(-c3ccco3)nn2C(=O)c2ccccc2Cl)cc1 | 0% | -2% |
| Cc1cc(S(=O)(=O)c2ccc(O)c(C)c2)ccc1O | 0% | 0% |
| CNC(=O)c1[nH]cnc1C(=O)NC1CCCCC1 | 18% | 11% |
| CC1Cc2cc(/C=C(\C#N)c3nc4ccccc4s3)ccc2O1 (stereo not given) | 173%[activator] | 32%[activator] |
| COc1ccc(-c2nc(CSCC(=O)N3c4ccccc4CC3C)co2)cc1 (stereo not given) | 106%[activator] | 11% |

More records follow:
| SMILES | StopGo FLuc | 2A Renilla |
| --- | --- | --- |
| Cc1ccccc1CN(C)C(C)C(=O)Nc1ccc(N2CCCCC2)cc1 (stereo not given) | 49%[activator] | -9% |
| COc1ccc(COC(=O)C2=C(C)NC3=C(C(=O)CCC3)C2c2ccccc2Br)cc1 (stereo not given) | 0% | 33%[activator] |
| CS(=O)(=O)N1CCN(C(C(=O)O)c2c[nH]c3ccc(NC(=O)CCC(=O)O)cc23)CC1 (stereo not given) | -4% | -3% |
| O=C(COc1ccccc1F)Nc1c(C(=O)c2ccc3c(c2)OCCO3)oc2ccccc12 | 0% | 32%[activator] |
| COc1cccc(CNCc2cccn2-c2nnc(N3CCN(C)CC3)s2)c1OC | 1% | -8% |
| O=S(=O)(NCCc1csc(-c2cccc(F)c2)n1)c1cc(F)ccc1F | ? | 243%[activator] |
| CC12CCC(O)CC1CCC1[C@@H]2CC(O)C2(C)C(C3=CC(=O)OC3)CCC12O (stereo not given in full) | ? | ? |
| Cc1ccc(C)c(-c2nnc(NC(=O)c3ccc4c(c3)OCCO4)o2)c1 | -11% | 0% |
| COc1ccc(-c2noc(N3CCC(C(=O)Nc4ccc(OC)c(OC)c4)CC3)n2)cc1 | 2% | -4% |
| Cc1ccc(NC(=O)NCc2cccn2Cc2ccccc2)cc1F | -6% | 10% |
| CC(C)CNC(=O)c1nc(CC(=O)Nc2cccc3ncccc23)no1 | 21% | 9% |
| CCOC(=O)c1c(NC(=O)CCCN2CCCCC2)sc2c1CC(C)(C)OC2 | -13% | -9% |

Record cards, from the list above:
Record of O=S(=O)(NCCc1csc(-c2cccc(F)c2)n1)c1cc(F)ccc1F : StopGo FLuc: ?; 2A Renilla: 243%[activator]
Record of COc1cccc(CNCc2cccn2-c2nnc(N3CCN(C)CC3)s2)c1OC : StopGo FLuc: 1%; 2A Renilla: -8%

Additional compounds follow.
| SMILES | StopGo FLuc | 2A Renilla |
| --- | --- | --- |
| Cc1cccc2sc(N(Cc3cccnc3)C(=O)CCS(=O)(=O)c3ccccc3)nc12 | 6%&-27% | 1%&-12% |
| CC(C)NC(=O)c1cn(C)nc1-c1ccc2c(c1)OCCCO2 | -4% | -5% |
| Cc1cc(C)cc(NC(=O)c2cc3c(cc2C)OCCCO3)c1 | 101%[activator] | 8% |
| Cc1cc(C)c2oc(=O)cc(CN3CCCCC3)c2c1 | -2% | 0% |
| Cc1nn2c(=O)cc(COC(=O)c3ccccc3NC(=O)c3cccs3)nc2s1 | 11% | 4% |
| Cc1cc2c(n1-c1ccc(C(=O)NCCc3ccc(Cl)cc3)cc1)CCCC2 | 20% | -2% |
| CC(C)C(=O)N1CCC(NC(=O)CCn2ccc3ccccc32)CC1 | -6% | -12% |
| COc1cc(C2c3c(-c4cc(Cl)c(C)cc4O)n[nH]c3C(=O)N2Cc2ccco2)ccc1O (stereo not given) | -12% | 21% |
| Cc1nc2ccccc2nc1SCC(=O)NC(C)C | 0% | 0% |
| CCOC(=O)NC(CNC(=O)c1ccccc1C)CC(C)C (stereo not given) | 3% | 8% |
| Cc1nn2c(C)c(C(=O)N3CCN(c4ccccc4)CC3)cnc2c1-c1ccccc1 | -26% | -16% |
| Cc1nc2ccccc2nc1SCC(=O)Nc1ccccc1OC(F)F | ? | ? |

(listing goes on)
| SMILES | StopGo FLuc | 2A Renilla |
| --- | --- | --- |
| N#C/C(=C\C=C\c1ccco1)C(=O)NC1CC1 | 43%[activator] | -1% |
| CCOC(=O)c1cccnc1SCC(=O)Nc1ccc(C)cc1C | 74%[activator] | 2% |
| Cc1cc(C)c(Cn2c3ccccc3c3cnn(CC(=O)NCc4ccccn4)c(=O)c32)c(C)c1 | 11% | 7% |
| COc1cccc(-c2nc(S(=O)(=O)c3ccc(C)cc3)c(NCc3ccccc3)o2)c1 | 2% | 273%[activator] |
| CN(C(=O)c1ccc(Cl)c(Cl)c1)c1nc2ccccc2o1 | 0% | -14% |
| Cc1cccc(N2CCN(C(=O)c3c(C)oc4nc(C)nc(N5CCCC5)c34)CC2C)c1 (stereo not given) | -32% | -12% |
| CCCC(CCC)C(=O)Nc1ccccc1 | -1% | 11% |
| Cc1cccc(NC(=O)C2CCCN(S(=O)(=O)c3ccc(Br)s3)C2)c1 (stereo not given) | -14% | 51%[activator] |
| COc1ccc(N2CCN(C(CNC(=O)C(=O)NCc3ccc(F)cc3)c3cccnc3)CC2)cc1 (stereo not given) | -2% | -7% |
| COC(=O)c1ccc(CN(C)S(=O)(=O)c2ccc3c(c2)OCCCO3)cc1 | 18% | 14% |
| COCCN(Cc1ccco1)c1nc(-c2ccc(OC)cc2)nc2ccccc12 | 0% | 12% |
| COc1ccccc1NC(=O)c1cc2cc(C)ccc2n1C | 31%[activator] | -1% |

(continued)
| SMILES | StopGo FLuc | 2A Renilla |
| --- | --- | --- |
| COc1ccc2c(C)c(CC(=O)Nc3cccc(C(C)=O)c3)c(=O)oc2c1OC | -11% | -3% |
| CC(C)(C)C(=O)Oc1ccc2c(-c3cc4ccccc4oc3=O)cc(=O)oc2c1 | -1% | -11% |
| C/C(=N\NC(=O)c1cccs1)c1ccc(Cl)cc1 | 153%[activator] | 31% |
| O=S(=O)(NCCS(=O)(=O)N1CCN(c2ccccc2F)CC1)c1ccc(Cl)cc1 | -3% | 81%[activator] |
| Fc1ccc(N/N=C/c2cccc(Cl)c2)c(F)c1 | 127%[activator] | 20% |
| COc1cccc(C(=O)NCCc2csc(-c3ccc(Cl)cc3)n2)c1 | ? | ? |
| Cc1ccc(CN2CCC(CNC(=O)c3cnn(-c4ccccc4)c3C3CCN(C(=O)OC(C)(C)C)CC3)CC2)cc1 | -21% | -14% |
| CC(C)(C)NC(=O)c1ccc(COc2cccc3c2OC(C)(C)C3)cc1 | ? | ? |
| COc1ccc(NC(C)=O)cc1NC(=O)c1cnc2ccccc2n1 | 128%[activator] | 13% |

Screening results (PubChem BioAssay)
